Screens (PubChem)
NPR1 antag: antagonists of human natriuretic peptide receptor Npr1. P16066. HEK293 hNpr1 GloSensor cGMP, ANP-stimulated luminescence. Potency, µM (highest dose often 46.3 µM), for the others: at the top dose activity change, negative = inhibition, usual class: inhibitors. 76,000 compounds, 1.6% hits. AID 1347048; active = well fitted inhibition curve with a large enough effect; inconclusive = small, poorly fitted or top-dose-only effect; inactive = no such curve, though single readings can be large or run the other way;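 further: nearly all actives have a fitted effect of over 60% in size; nearly all hits also lower the signal before the agonist is added; a reference antagonist and vehicle were the controls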
Target sequence (P16066 whole entry, looked up): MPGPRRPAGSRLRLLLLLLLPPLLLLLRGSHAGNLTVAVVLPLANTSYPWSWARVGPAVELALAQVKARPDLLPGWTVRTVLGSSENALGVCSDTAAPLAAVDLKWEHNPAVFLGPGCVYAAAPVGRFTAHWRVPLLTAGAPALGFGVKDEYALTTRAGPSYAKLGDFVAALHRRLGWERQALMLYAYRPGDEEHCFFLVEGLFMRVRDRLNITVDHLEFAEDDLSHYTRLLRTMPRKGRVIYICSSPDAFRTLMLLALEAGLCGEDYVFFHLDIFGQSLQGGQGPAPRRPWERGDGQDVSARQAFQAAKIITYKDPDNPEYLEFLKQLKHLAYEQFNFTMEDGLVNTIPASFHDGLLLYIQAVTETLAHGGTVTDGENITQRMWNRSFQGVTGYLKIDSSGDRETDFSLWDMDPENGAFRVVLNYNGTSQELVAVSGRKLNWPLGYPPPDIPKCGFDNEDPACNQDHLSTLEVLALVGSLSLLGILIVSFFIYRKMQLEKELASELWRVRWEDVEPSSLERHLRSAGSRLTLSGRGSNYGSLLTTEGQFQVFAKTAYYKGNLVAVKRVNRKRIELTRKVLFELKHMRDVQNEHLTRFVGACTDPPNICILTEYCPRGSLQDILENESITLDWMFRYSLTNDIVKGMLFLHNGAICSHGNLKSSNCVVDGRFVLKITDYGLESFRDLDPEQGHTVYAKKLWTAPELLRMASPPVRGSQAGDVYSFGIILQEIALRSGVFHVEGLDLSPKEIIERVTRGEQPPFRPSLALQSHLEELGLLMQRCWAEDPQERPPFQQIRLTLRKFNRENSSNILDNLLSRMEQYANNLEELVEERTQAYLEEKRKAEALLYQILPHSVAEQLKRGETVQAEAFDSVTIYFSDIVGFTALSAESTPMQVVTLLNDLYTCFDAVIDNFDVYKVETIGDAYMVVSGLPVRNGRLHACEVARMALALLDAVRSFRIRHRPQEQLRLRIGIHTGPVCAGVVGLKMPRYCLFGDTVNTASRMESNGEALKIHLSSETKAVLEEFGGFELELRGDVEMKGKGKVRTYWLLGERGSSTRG
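HEK293 cells stably expressing human Npr1 and cGMP GloSensor pGS-40F, loaded 2 h with 2% GloSensor reagent, given compound 30 min at room temperature. Luminescence read before and 20 min after 0.1 nM hNppA.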
An asterisk follows results filed as active; u = inconclusive; [ ] = remark or other dose. On the % scale 0 is the no-effect control and ±100 the full control effect; potency means the concentration at half of the fitted maximal effect. The list is partial; rates above refer to the full screens.

SMILES	NPR1 antag
COc1ccc(CN2CC[C@@](C)(O)[C@H](N3CCCC3)C2)cc1	4%
O=C1CCCN1CCCN1C(=O)[C@@H]2C[C@@H](O)CN2C2(CN(Cc3ccc(F)cc3)C2)C1=O	2%
COC[C@@H]1CN(Cc2ccc(F)c(F)c2)C[C@H]1C(=O)NC1CC1	-18%
Cc1ccsc1CN(Cc1ccc(CN(C)S(C)(=O)=O)o1)CC(C)C	-7%
COC1CCN(CC2CCCCCN2C(=O)CCCc2ccccc2)CC1 (stereo unspecified)	-12%
CN(C)C(=O)C1CN(C(=O)Nc2cccc(F)c2)CC12CCOCC2 (stereo unspecified)	-2%
CCN1CC(C(=O)N2CCN(Cc3cccc(F)c3)C(=O)C2)CC1=O (stereo unspecified)	8%
COCCn1c(CN2CCn3nc(C#N)cc3C2)nnc1C1CC(N)C1 (stereo unspecified)	3%
COCCc1nncn1C1CCN(S(=O)(=O)c2cccc(Cl)c2)CC1	-2%
CCn1nccc1C(=O)N1C[C@@H](Oc2ccccc2)C[C@@H]1C(=O)NC	5%
CCCNC(=O)C1COC2(CCN(C(=O)C3CCC3)CC2)N1C(=O)c1ccc(OC)cc1 (stereo unspecified)	-7%
COC(=O)[C@@H]1Cc2ncn(Cc3ccc(Cl)cc3)c2CN1CCCc1ccccc1	u
Cc1ccc(N2CC(C)N(C(=O)c3ccc(-n4cnnn4)cc3)CC2=O)cc1 (stereo unspecified)	4%
CN1[C@@H](CCC(=O)NCc2ccc(F)cc2)CNC(=O)[C@@H]2[C@H]1CCN2Cc1ncc[nH]1	2%[70.6 µM]
O=C(NCc1ccccc1)c1ccc2c(c1)OCCN(c1ccccc1)C2	u
Cc1ccc(S(N)(=O)=O)cc1C(=O)N[C@H]1[C@@H]2CCO[C@@H]2[C@@H]1C1CCCC1	4%
O=C(CC[C@H]1NC(=O)c2ccccc2NC1=O)NCCc1ccccn1	4%
CCCn1nc(C)cc1CN(CC)C(=O)c1cc[nH]c1C1CCCNC1 (stereo unspecified)	3%
O=C(NC1C[C@H]2CC[C@@H](C1)N2C(=O)Cc1ccccc1)c1ccncc1 (stereo partly specified)	1%
O=C(O)c1ccc(CN2Cc3[nH]cnc3C[C@H]2c2nc(-c3cccc([N+](=O)[O-])c3)no2)cc1	2%

The list goes on (two carried over from the part before).
SMILES	NPR1 antag
O=C(NC1C[C@H]2CC[C@@H](C1)N2C(=O)Cc1ccccc1)c1ccncc1 (stereo partly specified)	1%
O=C(O)c1ccc(CN2Cc3[nH]cnc3C[C@H]2c2nc(-c3cccc([N+](=O)[O-])c3)no2)cc1	2%
CCOC(=O)C1=CN(CC(=O)Nc2ccc(C)c(C)c2)S(=O)(=O)N=C1C	-14%
CC#CCn1cc2c3c(cccc31)[C@H](CC(C)C)N[C@H](C(=O)NCCC)C2	-5%[70.6 µM]
c1ccc(-n2cc(CN3CCCN(Cc4cccs4)CC3)nn2)cc1	0%
CC(C)c1nncn1C1CCN(S(=O)(=O)c2ccccc2F)CC1	-13%
Cc1ccccc1S(=O)(=O)N1CCCC(CCC(=O)NCC2CCCCC2)C1 (stereo unspecified)	u
O=C(Cc1cccs1)NC1CCCN(c2cc(-c3ccccc3)[nH]n2)C1 (stereo unspecified)	-14%
COc1ccc(NC(=O)N[C@H]2C[C@@H](c3nc(-c4ccncc4)no3)N(C)C2)cc1	0%[70.6 µM]
Cc1ccc(C)c(C(=O)N2CCC3(CC2)N(C)C(=O)CS3(=O)=O)c1	-2%
CCN1c2cc(C(=O)Nc3cccc(F)c3)ccc2C(=O)N2CCCCC21 (stereo unspecified)	0%
COc1ccc2c(c1)CCN=C2C[C@H]1CN(C(=O)c2ccc(F)cc2)CC[C@H]1CC(=O)O	-6%[70.6 µM]
CC(C)c1noc([C@@H]2C[C@H](NS(=O)(=O)c3ccccc3)CN2C)n1	1%[70.6 µM]
Cc1cccc(-c2nc3cnccn3c2NCCC(=O)N(C)C)c1	1%
CN1CCOc2c(C(=O)NCC[S+](C)(=O)[O-])cc(-c3ccccc3)cc21	3%[70.6 µM]
Cc1cc(=O)n(CC(=O)Nc2cc(F)ccc2F)c(-c2ccccc2)n1	-5%
Cc1ccc2c(C(=O)NCc3ccccc3Cl)cc(NC(=O)C(C)C)cc2n1	-18%
Cn1ncc(N2CCC(NC(=O)CC(C)(C)C)CC2)cc1=O	-3%
CCOC(=O)C1=CN(CC(=O)Nc2cc(F)ccc2F)S(=O)(=O)N=C1C	-3%
O=C(CCN1CCCCO1)N1CCc2onc(-c3ccc(F)c(F)c3)c2C1	6%
O=C(Cc1c[nH]c2ncc(-c3ccccc3F)cc12)NCc1cccnc1	-24%[70.6 µM]
CC(C)CCCC(=O)N1C[C@@H](C(=O)O)C[C@@H](C(=O)NCc2ccncc2)C1	1%
O=C(c1ccc(C(F)(F)F)cc1)N1CCN2C(=O)N(C3CCCCC3)C[C@H]2C1	0%[70.6 µM]
COc1ncccc1-c1cnc2[nH]cc(CC(=O)N(C)Cc3ccccc3)c2c1	u
Cc1ccc(-c2nnc(C3CN(C(=O)c4ccc(C)nc4)CC34CCOCC4)o2)cc1 (stereo unspecified)	4%
COc1ccc(N2CC(c3noc(-c4ccc(C)cc4C)n3)CC2=O)cc1 (stereo unspecified)	7%
OCC1CN(Cc2cc(F)cc(Br)c2)CC12CCNCC2 (stereo unspecified)	2%
NC(=O)c1ccc(Nc2cnc3ccc(-c4ccccc4)nn23)cc1	-10%[70.6 µM]
O=C1COc2ccc(Nc3cccc(F)c3)nc2CN1CCOc1ccccc1	u
CCn1cc(S(=O)(=O)N2CC[C@H]3C(=O)NCCCCCCN(Cc4ccncc4)[C@@H]3C2)cn1	4%
COc1ccccc1-c1nnc([C@H]2CCN(Cc3ncc[nH]3)C2)o1	-2%[70.6 µM]
COCC(=O)N1CC(C(=O)NCc2ccncc2)C2(CCOCC2)C1 (stereo unspecified)	4%
Cc1cc(C)c(CNC(=O)c2cc(-c3ccccc3C)cc3ncn(C)c23)c(=O)[nH]1	-5%[70.6 µM]
O=C1NCCCCCCN(C(=O)c2ccoc2)[C@H]2CCC[C@@H]12	1%
CC(C)Oc1ccccc1CN1CCc2nc(N(C)C)[nH]c(=O)c2CC1	-5%
COc1ccc(C(=O)N[C@@H]2CCC[C@@H]2C(=O)NCCc2ccccc2)cn1	5%
CCCCS(=O)(=O)Nc1ccc([C@H]2OCC(=O)N(Cc3ccccc3)[C@@H]2CO)cc1	4%[70.6 µM]
CN(C)C1CCCN(C(=O)c2ccc(CN3CCCC3)o2)CC1 (stereo unspecified)	-24%
Cn1nc(C2CCCN(C(=O)c3cccnc3)C2)n(-c2ccccc2)c1=O (stereo unspecified)	5%
Cc1c(F)cccc1NC(=O)N1CCCC(c2noc(COc3ccccc3F)n2)C1 (stereo unspecified)	u
COc1ccc(NC(=O)c2cc(-c3ccc[nH]3)n[nH]2)cc1OC	-10%
Cn1nccc1C(=O)N1CCC(Cc2nc(C3CC3)n[nH]2)C1 (stereo unspecified)	2%

Molecules shown so far that have fluorine, in the order listed:
SMILES	NPR1 antag
O=C1CCCN1CCCN1C(=O)[C@@H]2C[C@@H](O)CN2C2(CN(Cc3ccc(F)cc3)C2)C1=O	2%
COC[C@@H]1CN(Cc2ccc(F)c(F)c2)C[C@H]1C(=O)NC1CC1	-18%
CN(C)C(=O)C1CN(C(=O)Nc2cccc(F)c2)CC12CCOCC2 (stereo unspecified)	-2%
CCN1CC(C(=O)N2CCN(Cc3cccc(F)c3)C(=O)C2)CC1=O (stereo unspecified)	8%
CN1[C@@H](CCC(=O)NCc2ccc(F)cc2)CNC(=O)[C@@H]2[C@H]1CCN2Cc1ncc[nH]1	2%[70.6 µM]
CC(C)c1nncn1C1CCN(S(=O)(=O)c2ccccc2F)CC1	-13%
CCN1c2cc(C(=O)Nc3cccc(F)c3)ccc2C(=O)N2CCCCC21 (stereo unspecified)	0%
COc1ccc2c(c1)CCN=C2C[C@H]1CN(C(=O)c2ccc(F)cc2)CC[C@H]1CC(=O)O	-6%[70.6 µM]
Cc1cc(=O)n(CC(=O)Nc2cc(F)ccc2F)c(-c2ccccc2)n1	-5%
CCOC(=O)C1=CN(CC(=O)Nc2cc(F)ccc2F)S(=O)(=O)N=C1C	-3%
O=C(CCN1CCCCO1)N1CCc2onc(-c3ccc(F)c(F)c3)c2C1	6%
O=C(Cc1c[nH]c2ncc(-c3ccccc3F)cc12)NCc1cccnc1	-24%[70.6 µM]
O=C(c1ccc(C(F)(F)F)cc1)N1CCN2C(=O)N(C3CCCCC3)C[C@H]2C1	0%[70.6 µM]
OCC1CN(Cc2cc(F)cc(Br)c2)CC12CCNCC2 (stereo unspecified)	2%
O=C1COc2ccc(Nc3cccc(F)c3)nc2CN1CCOc1ccccc1	u
Cc1c(F)cccc1NC(=O)N1CCCC(c2noc(COc3ccccc3F)n2)C1 (stereo unspecified)	u

Next part.
SMILES	NPR1 antag
Cc1cc(C(=O)N2C[C@@H](COCC3CC3)[C@H](c3ccncc3)C2)no1	-9%
CN1C(=O)C(CC(=O)NCC2CC2)=C2CCCCC21 (stereo unspecified)	2%
CC[C@H]1CN(C(=O)c2ccccc2)CC[C@H]1CC(=O)N1CCOCC1	1%[70.6 µM]
CC1CCC2(CC1)OCC(C(=O)NC(C)(C)C)N2C(=O)c1ccc(F)cc1 (stereo unspecified)	6%
CC1(COc2ccccc2)COc2ccc(C(=O)NCc3cccc(F)c3)cc2N1 (stereo unspecified)	-30%[70.6 µM]
Cc1cc(C)c(C#N)c(N2CCC3(CCC(=O)N(CC(C)O)C3)CC2)n1 (stereo unspecified)	-1%
CN1CCCCCCN(C(=O)c2nccc3ccccc23)[C@H]2CCC[C@H]2C1=O	4%
O=C(Cc1ccc(Cl)cc1)N1CCC(n2cc(-c3nc(-c4ccccc4)no3)nn2)CC1	-27%
CCCc1noc(-c2cn(C3CCN(C(=O)c4ccc(OCC)cc4)CC3)nn2)n1	0%
CCOc1ccccc1C1NC(=O)N(CC(=O)NCc2ccc(F)cc2)C2=C1C(=O)OC2 (stereo unspecified)	-2%
Cc1ccc(S(=O)(=O)Cc2noc([C@@H]3C[C@@H](O)CN3C3CCOCC3)n2)cc1	3%[70.6 µM]
Cc1ccc(CN(C)C(=O)c2ccccc2OC2CCN(Cc3ccccn3)CC2)o1	2%
CCCN(CC1CCOC1)C(=O)CCCc1ccccc1 (stereo unspecified)	-1%
CCC1Oc2ccc(NC(=O)c3ccc4c(c3)OCO4)cc2CN(Cc2ccc(F)cc2)C1=O (stereo unspecified)	-13%
COCCN1C(=O)C(CC(=O)O)=C2CCCCC21 (stereo unspecified)	0%
COCCN1CCN(C[C@@H]2C=C(C)[C@H](Cc3nnc(C)o3)C[C@H]2C(C)C)CC1	-3%[70.6 µM]
O=C(Nc1ccc(F)cc1)c1cc2cccnn2n1	4%[70.6 µM]
COc1ccccc1CNC(=O)C1(c2ccc(NC(C)=O)cc2)CCCCC1	-3%
Cn1c(C(=O)N2CCC(N3CCCCC3)CC2)cc2c1CCN(Cc1cccc(F)c1)C2	1%
Clc1ccc(-c2ccc(CN3CC[C@H]4CC[C@@H](C3)N4)o2)cc1	-12%
O=C(Nc1ccccc1)Nc1cccc(-c2nnc3n2CCCC3)c1	-3%
CN1c2cc(C(=O)NCc3cccs3)ccc2C(=O)N2CCCCC21 (stereo unspecified)	-2%
COc1ccccc1N1CCN(C(=O)c2cc(NC(=O)C(C)C)cc3nc(C)ccc23)CC1	1%
COCC1CN(C2CCC2)CC12CCN(C(=O)c1ccc(OC)cc1)CC2 (stereo unspecified)	-17%
COCC(=O)N[C@H]1C[C@@H](CO)N(Cc2cccc(F)c2F)C1	-10%
Cc1ccnc(NC(=O)C2CC(=O)N(c3n[nH]c4cccc(F)c34)C2)c1 (stereo unspecified)	-6%
COc1ccc(C(=O)N2CCCC(c3nc(-c4ccccc4)no3)CCNC(=O)CC2)cc1 (stereo unspecified)	-4%
Cc1nnc(-c2cc(-c3ccc([S+](C)(=O)[O-])cc3)ccn2)n1Cc1ccccc1	-11%[70.6 µM]
Cc1nc(C)c(C(=O)N2CCc3nn(Cc4ccccc4)c(=O)n3CC2)s1	3%
Cc1cccc(NC(=O)c2cc3n(n2)CC(c2ccc(Cl)cc2)OC3)c1C (stereo unspecified)	-22%
NC(=O)C1CCN(C(=O)[C@H]2C[C@@H](O)[C@H](O)[C@@H]3N=C(Nc4cccc(C(F)(F)F)c4)S[C@@H]32)CC1	1%
Cc1nc([C@@H]2CN(C(=O)Cc3ccc(S(C)(=O)=O)cc3)C[C@H]2C(N)=O)n[nH]1	1%
COC[C@H]1CCCN1Cc1nc(C2(O)CCN(C(C)=O)CC2)cs1	7%[70.6 µM]
CC(C)c1noc(-c2cn(C3CCN(C(=O)c4ccc[nH]4)CC3)nn2)n1	0%
COc1ccc(CCn2nc3n(c2=O)CCN(Cc2ccccc2C)C3=O)cc1	-1%
CN(C)c1cccc(NC(=O)c2ccc3c(c2)NC(C)(COc2cccnc2)CO3)c1 (stereo unspecified)	u
Cn1ccnc1C(=O)N1C[C@@H](Oc2cccnc2)C[C@H]1C(=O)N1CCCC1	-9%
COc1ccccc1NC(=O)NC[C@H]1O[C@H](Cc2cc(-c3ccc(F)cc3)on2)CC[C@@H]1O	-19%
O=C(Nc1ccccc1)N1CC(n2cc(C(=O)N3CCOCC3)nn2)C1	-12%
CCC1Oc2ccc(NC(=O)COc3ccccc3)cc2CN(Cc2ccccc2Cl)C1=O (stereo unspecified)	-13%
COc1cccc(-c2cc3c(=O)n(CCNC(=O)c4cccnc4)ccn3n2)c1	-18%
CCCCNC(=O)c1cccc2c1CCN2C(=O)Nc1ccccc1	u
CC(C)(C)c1cnc([C@@H]2COCCN2Cc2ccc(C(=O)O)cc2)[nH]1	1%[70.6 µM]
Cc1nc(N2CCC(NC(=O)C(C)c3ccccc3)CC2)cc(C(F)(F)F)n1 (stereo unspecified)	1%
